Screening data as filed in PubChem.
Vaccinia Venus – vaccinia inhibition (Venus reporter); hit rate 0.46% among 330,000; Potency, µM (titrated, usually from 36.5 µM), for inactives: top-dose activity change, negative = inhibition, hits mostly inhibitors; AID 720580; Vaccinia virus Venus reporter expression, fluorescence; active means well fitted inhibition curve with a large enough effect; inconclusive means small, poorly fitted or top-dose-only effect; inactive means no such curve, though single readings can be large or run the other way; tested in A549 cells; also: nearly all actives have a fitted effect of over 30% in size; inactives centre near -10
Vaccinia mCherry – vaccinia inhibition (mCherry reporter); Potency, µM (doses to about 36.5 µM), inactives show at the top dose activity change, negative = inhibition, most hits filed as inhibitors; Vaccinia virus mCherry reporter infection, fluorescence; about a quarter of the inactives have no number; hit rate 0.63% among 310,000; AID 720579; active = well fitted inhibition curve with a large enough effect; inconclusive = small, poorly fitted or top-dose-only effect; inactive = no such curve, though single readings can be large or run the other way; tested in A549 cells; also: nearly all actives have a fitted effect of over 35% in size; inactives centre near -10
The depositor's hits bear a star; i = inactive; ? = inconclusive; . = not tested or not shown; & = joins results of further samples; [ ] = remark or other dose. % is scaled to controls: 0 for no effect and ±100 for the full control effect; potency is read from the fitted curve at half-maximal effect.

SMILES | Vaccinia Venus | Vaccinia mCherry
COc1ccc(C)cc1S(=O)(=O)N(CC(=O)NCc1ccco1)c1ccc(C)cc1 | -12% | i
O=C(O)Cc1ccc(N2N=C(c3ccccc3)CC2=O)cc1 | -1% | 12%
O=C(CC1C(=O)NCCN1Cc1cccc(Oc2ccccc2)c1)NCCCn1cccn1 (stereo not given) | 4% | i
O=C(N/N=C/c1ccc(-c2ccc(S(=O)(=O)Nc3ncccn3)cc2)o1)c1cc2ccccc2cc1O | -11% | 3%[1.46 µM]
CC(C)(C)c1ccc(/C=N/NC(=O)C[n+]2ccccc2)cc1 | -10% | -1%
CCOc1ccc(-n2c(-c3cccs3)nc3ccccc3c2=O)cc1 | -9% | i
Cc1ccc2nc(-c3ccc(NC(=O)C(F)(F)F)cc3)sc2c1 | -17% | -24%
Cc1ccccc1-n1c(=O)cc(N2CCc3ccccc32)[nH]c1=O | -24% | -12%
Cc1ccccc1OCC(=O)NNC(=O)c1ccc(-c2ccccc2)cc1 | -13% | -12%
COc1ccc(S(=O)(=O)NCc2ccncc2)cc1NC(=O)c1ccc(Cl)cc1 | -9% | -12%
O=C(CNS(=O)(=O)c1ccc(Cl)cc1)NNC(=O)c1cccnc1 | 7% | -7%
CCOc1ccc(NC(=O)C2CCCN(c3nc(C)cc(C)n3)C2)cc1 (stereo not given) | -15% | -25%
O=C(CCn1c(=O)c2cccn2c2ccc(F)cc21)NCCc1ccccc1Cl | -2% | -1%
O=C(CN(Cc1ccco1)C(=O)Cn1nnc(-c2cccs2)n1)NCC1CCCO1 (stereo not given) | -9% | i
O=C(NCC1CCCO1)c1ccc2ccccc2n1 (stereo not given) | -18% | .
O=c1cc(COc2ccc(Cl)cc2Cl)nc2scc(-c3ccccc3)n12 | -7% | -7%
CCN1CCN(CC(=O)c2c(C)n(C)c3ccc(OC)cc23)CC1 | -3% | -15%
O=C(O)CNC(=O)c1ccc2c(c1)OCCO2 | -6% | -9%
CCOCCCN(C(=O)c1snc(C(N)=O)c1N)C(C(=O)NC1CCCC1)c1ccc(O)cc1 (stereo not given) | -3% | i
CCc1ccccc1Nc1ccc(C(=O)O)cc1N | 16% | .

3 structures from above, arranged by molar mass, low to high.
SMILES | Vaccinia Venus | Vaccinia mCherry
O=C(O)Cc1ccc(N2N=C(c3ccccc3)CC2=O)cc1 | -1% | 12%
COc1ccc(C)cc1S(=O)(=O)N(CC(=O)NCc1ccco1)c1ccc(C)cc1 | -12% | i
CCOCCCN(C(=O)c1snc(C(N)=O)c1N)C(C(=O)NC1CCCC1)c1ccc(O)cc1 (stereo not given) | -3% | i

Later entries
SMILES | Vaccinia Venus | Vaccinia mCherry
Cc1nnc(SCC(=O)N(CC(C)C)c2c(N)n(Cc3ccccc3)c(=O)[nH]c2=O)n1N | -8% | -12%
Cc1ccc(/C=N/NC(=O)c2cc(-c3cccnc3)nc3ccccc23)cc1 | ? | -21%
CN(C)C(=O)COC(=O)[C@H](Cc1ccccc1)NC(=O)c1ccco1 | 10% | -5%
CC1(C(=O)NS(=O)(=O)C2CC2)CCCN(C(=O)c2ccc3c(c2)OCO3)C1 (stereo not given) | 3% | 2%
O=C(Nc1ccc(Cl)cc1)c1ccc(-n2cnnc2)cc1 | -4% | 9%
CCNC(=S)NNC(=O)c1ccc(=O)n(Cc2ccccc2)c1 | -3% | 5%
COc1ccc(CCNC(=O)c2c(O)nc3ccccn3c2=O)cc1OC | -6% | -6%
CCOc1ccc(S(=O)(=O)NCc2ccccc2)cc1C(N)=O | -16% | -9%
O=C(CNC(=O)c1ccccc1)NCC(=O)OCC(=O)c1ccc(F)cc1 | -3% | -11%
C/C(=N\N=C(N)N)c1cc(Cl)ccc1Cl | -2% | i
COC(=O)c1ccc(C(NC(=O)c2cccnc2)NC(=O)c2cccnc2)cc1 | -8% | i
COc1ccc(-c2cc(C(F)(F)F)n3ncc(-c4ccccc4)c3n2)cc1 | -3%[7.34 µM] | -4%[7.34 µM]
Cc1ccc(C)c(NC(=O)CN(C)C(=O)c2ccc(-c3ccc(Cl)cc3)o2)c1 | -15% | -21%
O=C(Cn1cc(C(=O)c2ccco2)c2ccccc21)NCc1ccco1 | -6% | -4%
COc1ccc(Cl)cc1NC(=O)c1cc2nc(-c3ccc4c(c3)OCO4)cc(C(F)(F)F)n2n1 | 0% | 5%
CC(=O)c1ccc(NC(=O)C2CC2c2ccccc2)cc1 (stereo not given) | -14% | -13%
O=C(Nc1ccc(S(=O)(=O)N2CCCC2)cc1)c1ccc(Cl)nc1 | -7% | -8%
CCC(=O)Nc1c(OC(=O)CC)ccc2c(C)cc(=O)oc12 | -7% | 8%
CC1CCN(C(=O)C2CCN(S(=O)(=O)c3cccc4nonc34)CC2)CC1 | -8% | -11%
CCc1nnc(NC(=O)CSc2nnc(C(C)NC(=O)c3ccccc3F)n2C)s1 (stereo not given) | 0% | -9%

4 entries picked at random from the list so far, as already listed:
SMILES | Vaccinia Venus | Vaccinia mCherry
CCc1nnc(NC(=O)CSc2nnc(C(C)NC(=O)c3ccccc3F)n2C)s1 (stereo not given) | 0% | -9%
CN(C)C(=O)COC(=O)[C@H](Cc1ccccc1)NC(=O)c1ccco1 | 10% | -5%
Cc1ccc(C)c(NC(=O)CN(C)C(=O)c2ccc(-c3ccc(Cl)cc3)o2)c1 | -15% | -21%
COc1ccc(-c2cc(C(F)(F)F)n3ncc(-c4ccccc4)c3n2)cc1 | -3%[7.34 µM] | -4%[7.34 µM]

The main list resumes with the six entries that preceded the break.
SMILES | Vaccinia Venus | Vaccinia mCherry
COc1ccc(Cl)cc1NC(=O)c1cc2nc(-c3ccc4c(c3)OCO4)cc(C(F)(F)F)n2n1 | 0% | 5%
CC(=O)c1ccc(NC(=O)C2CC2c2ccccc2)cc1 (stereo not given) | -14% | -13%
O=C(Nc1ccc(S(=O)(=O)N2CCCC2)cc1)c1ccc(Cl)nc1 | -7% | -8%
CCC(=O)Nc1c(OC(=O)CC)ccc2c(C)cc(=O)oc12 | -7% | 8%
CC1CCN(C(=O)C2CCN(S(=O)(=O)c3cccc4nonc34)CC2)CC1 | -8% | -11%
CCc1nnc(NC(=O)CSc2nnc(C(C)NC(=O)c3ccccc3F)n2C)s1 (stereo not given) | 0% | -9%
Cc1ccc(C(=O)C(O)C(c2ccc(C)cc2)N2CCCCC2)cc1 (stereo not given) | -6% | i
CCOc1ccc(NC(=O)C2CC(=O)N3CCCN=C3S2)cc1 (stereo not given) | 3% | -12%
Cc1cccc(OCC(=O)Nc2cccc(C(=O)OCc3cc(=O)n4c(C)csc4n3)c2)c1 | -19% | -18%
C=CC[C@H](CC(=O)N(CCO)Cc1ccccc1)C(=O)NCCOC(=O)[C@@H](CC=C)Cc1ccc(F)cc1 | -22% | -8%
Cc1ccc(-c2nn3c(=O)cc(CN4CCN(S(=O)(=O)c5ccc(Cl)cc5)CC4)nc3s2)cc1 | -13% | ?
COC(=O)c1c(NC(=O)COC(=O)c2ccc(Cl)nc2)sc(C)c1C | -3% | i
CNc1c(NS(=O)(=O)c2ccc(F)cc2)c(=O)oc2ccccc12 | 0% | i
CCN(CC)S(=O)(=O)c1ccc(=O)[nH]c1 | -7% | i
CCOC(=O)C(OC(=O)c1sc(=S)n(C)c1C)C(C)=O (stereo not given) | -6% | .
O=[N+]([O-])C1=C(Nc2cccc3ccccc23)CS(=O)(=O)C1 | -6% | i
CC(=O)c1cccc(NC(=O)C(OC(=O)c2cccs2)c2ccccc2)c1 (stereo not given) | -7% | -12%
COCCN(C(=O)c1ccc(-c2ccc([N+](=O)[O-])cc2)o1)c1c(N)n(CC(C)C)c(=O)[nH]c1=O | -5% | -13%
CN1CCN(C(c2ccccc2)c2ccc(Cl)cc2)CC1 (stereo not given) | -18% | -7%
FCCCOc1ccc(-c2nccc(-c3ccc(Br)cc3)n2)cc1 | -30% | .
CCC(C)C1(C2CCCC2)NC(=O)NC1=O (stereo not given) | -8% | i
COC(=O)[C@@H](NC(=O)NCc1ccc(F)cc1)C(C)C | -1% | -10%
CC(=O)Nc1ccc(-c2ccnc3c2CC(C(=O)Nc2cccc(N(C)C)c2)O3)cc1 (stereo not given) | ? | i
CCc1cc(=O)oc2c3c(cc(OCC(=O)NCCN4CCOCC4)c12)OC(C)(C)CC3 | 7% | 14%
C=CCOC(=O)C1=C[C@@H](c2csc3ccccc23)C[C@@H](OCCCCO)O1 | -10% | -6%
Cc1cccc(-c2nc(CS(=O)CC(=O)N3CCN(C)CC3)c(C)o2)c1 (stereo not given) | -3% | 3%
O=c1[nH][nH]c(C(F)(F)F)c1C=NCc1ccccc1Cl | -8% | -15%
Cc1cccc(CNC(=O)Cc2csc3ccccc23)c1 | -11% | -12%
CC(=O)N1c2ccc(S(=O)(=O)N3CCCC(C(=O)N4CCCC(C)C4)C3)cc2CC1C (stereo not given) | -19% | i
CCOC(=O)C1CCN(C(=O)c2cc3cc(Cl)ccc3[nH]2)CC1 | 4% | -16%
CCOC(=O)OC(C)OC(=O)C1N2C(=O)C(NC(=O)C(N)c3ccccc3)C2SC1(C)C (stereo not given) | 0% | -3%
O=C(N/N=C/c1cccc(C(F)(F)F)c1)c1cc2c(s1)-c1ccccc1CC2 | -14% | .
CCOc1cc(/C=N/NC(=O)C(=O)NCC2CCCO2)ccc1OCC(=O)N1CCOCC1 (stereo not given) | 0% | -7%
CCOC(=O)C1=C(C)NC(=O)NC1c1ccc(-c2ccc(F)cc2)o1 (stereo not given) | -10% | -5%
CCn1c(C(=O)N2CCC(C(=O)N3CCN(c4cc(C)ccc4C)CC3)CC2)cc2sccc21 | -25% | -5%
CC(=O)Nc1ccc(NC(=O)[C@@H](NC(=O)c2ccccc2F)C(C)C)cc1 | -6% | -4%
O=C(CSc1nc2c([nH]c3ccccc32)c(=O)n1-c1ccccc1)Nc1ccc2c(c1)OCO2 | -8% | -17%
CN(C)CCCNc1oc(/C=C/c2ccccc2)nc1C#N | -2% | -7%
CCOc1ccc(-c2nc3c(C#N)c[nH]n3c2NC2CCCCC2)cc1 | ? | ?
COC(=O)c1cccc(N2C(=O)c3cccnc3C2=O)c1 | -6% | .
CCCCCCSc1ccc(-c2nc3ccc(C)cn3c2NCc2ccccc2)cc1OC | -20%&-13% | ?
O=C(Nc1ccc(F)cc1)C(c1cc2ccccc2o1)N1CCN(c2cccc(C(F)(F)F)n2)CC1 (stereo not given) | -1% | -12%
Cc1ccc2nc(-c3ccco3)c(CC3CCCCC3)n2c1 | -3% | i
CC1CCC(NC(=O)c2ccc(CS(=O)(=O)c3ccc(Cl)cc3)o2)CC1 (stereo not given) | -4% | -9%
O=C(CSc1nc2ccccc2c(=O)n1-c1ccc(F)cc1F)Nc1ccc(N2CCOCC2)cc1 | -17% | i
Cc1cc(C)cc(NC(=O)N2CCC3(CC2)Oc2ccccc2C(=O)N3Cc2ccccc2F)c1 | -20% | -10%
Cc1cccc(C)c1NC(=O)COC(=O)c1cc[n+]([O-])cc1 | -2% | -10%
Cc1ccc(S(=O)(=O)n2nc(C)c(Br)c2C)c(C)c1C | -15% | .
Cc1ccc(C2OC(=O)c3ccccc32)cc1 (stereo not given) | 1% | i
Cn1nnnc1SCC(=O)Nc1cc(S(=O)(=O)N2CCCC2)ccc1Cl | -8% | -2%
COc1cccc(CN(C)C(=O)/C=C/c2ccc(S(=O)(=O)N3CCCCCC3)cc2)c1 | -24% | ?
Cc1onc(-c2ccccc2Cl)c1C(=O)N1CCc2ccccc2C1 | -12% | -23%
COc1cccc(S(=O)(=O)NCc2ccc(C(=O)NCC3CCCO3)cc2)c1 (stereo not given) | -10% | -12%
CCOc1cc(/C=N/NC(=O)c2c(C)nc3ccc(Cl)cn23)ccc1O | -9% | ?
C[C@H](CO)N1C[C@H](C)[C@@H](CN(C)C(=O)Nc2ccc(C(F)(F)F)cc2)Oc2c(NC(=O)NC3CCCCC3)cccc2C1=O | ? | -11%
COc1ccc(OC)c(NC(=O)CSCc2cnn(-c3ccccc3)c2-n2cccc2)c1 | -20% | .
CCc1nc2ccc(C(=O)N3CCN(S(=O)(=O)CC)CC3)cn2c1N(C)C(=O)c1cccc(OC)c1 | -11% | 31%[activator]
N#Cc1c(/N=C/c2ccc(-c3ccccc3C(=O)O)o2)sc2c1CCCC2 | -3% | -10%
COc1cc(OC)c(NC(=O)NC(C)c2c(-n3cccc3)sc(C)c2C)cc1Cl (stereo not given) | -16% | -24%
C=C(C)c1cccc(C(C)(C)NC(=O)Nc2ccc(Cl)cn2)c1 | -18% | i
O=C(CC1NCCNC1=O)Nc1ccc(Oc2ccccc2)cc1 (stereo not given) | -6% | -8%
COCCN(C(=O)COC(=O)/C=C/c1ccccc1Cl)c1c(N)n(Cc2ccccc2)c(=O)[nH]c1=O | -27% | -5%
CC(C)(Cl)[N+](=O)[O-] | -9% | i
COC(=O)C1=C(c2ccc(F)cc2F)C[C@@H]2CC[C@H]1N2C(=O)N1CCCC1 | -8% | -5%
CCN1CCn2c1nc(N1CCOCC1)nc2=O | -7% | i
COc1ccc(-c2cc(-c3ccccc3)c(C#N)c(SCC(O)CS(=O)(=O)Cc3ccccc3)n2)cc1 (stereo not given) | -15% | -16%
CN(CC(=O)Nc1c(Cl)cccc1Cl)C(=O)c1ccccc1SCC(=O)N1CCCC1 | -16% | i
